Bioassay records as filed in PubChem.
PINK1 expr mod = changes PINK1 expression | PINK1 immunofluorescence, high-content cytometry, 24 h | Potency, µM (series often up to 76.6 µM), inactives show at the highest dose activation (PINK1 increase), most hits filed as activators | 0.2% of 410,000 active; active = well fitted activation curve with a large enough effect; inconclusive = small, poorly fitted or top-dose-only effect; inactive = flat fitted curve, though single readings scatter; cell line not stated here;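 note: potency is the fitted concentration of half-maximal effect; % of control where 0% means no effect; nearly all actives have a fitted effect of over 65% in size; a mitochondrial uncoupler was the plate control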
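Compound titrations (5 concentrations, 24 h) on a stable cell line; DMSO and CCCP controls. Endpoint: fixed-cell PINK1 immunofluorescence with mitochondrial, cell and nuclear markers, scanned by microplate cytometer.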
Six1-Eya2 blk = blocks human Six1 binding to Eya2; Q15475+O00167; AlphaScreen GST-Six1/His-Eya2 binding, biochemical; stronger effect = lower value; control for the full effect not named in the record; activity change, % (test concentration not listed); 0.56% of 360,000 active; AID 651725; in the data active = activity change below about -65%; inconclusive = about -30% to -65%; inactive = above about -30%; note: % is set by controls: 0 for no effect and ±100 for the full control effect; compound concentration not given in the record
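Homogeneous AlphaScreen proximity assay pairing GST-Six1 with His-tagged Eya2 (added as 5X mix: 250 nM and 500 nM) in 50 mM Tris pH 8.0, 300 mM NaCl, 1 mM TCEP. Glutathione donor and nickel acceptor beads; 1 h, 37 °C, dark.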
D2 potentiator = potentiates the human D2 dopamine receptor allosterically; DiscoveRx D2 beta-arrestin cells, luminescence, 90 min; 100% = 57 uM dopamine signal; potentiation, % (no concentration beside the values); 0.23% of 360,000 active; AID 624464; active = potentiation of 50% or more; inconclusive = 30% to 50%; inactive = 30% or less;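 note: compound concentration not given in the record; tested on top of an EC20 dose of dopamine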
Target sequence (P14416 whole entry, looked up): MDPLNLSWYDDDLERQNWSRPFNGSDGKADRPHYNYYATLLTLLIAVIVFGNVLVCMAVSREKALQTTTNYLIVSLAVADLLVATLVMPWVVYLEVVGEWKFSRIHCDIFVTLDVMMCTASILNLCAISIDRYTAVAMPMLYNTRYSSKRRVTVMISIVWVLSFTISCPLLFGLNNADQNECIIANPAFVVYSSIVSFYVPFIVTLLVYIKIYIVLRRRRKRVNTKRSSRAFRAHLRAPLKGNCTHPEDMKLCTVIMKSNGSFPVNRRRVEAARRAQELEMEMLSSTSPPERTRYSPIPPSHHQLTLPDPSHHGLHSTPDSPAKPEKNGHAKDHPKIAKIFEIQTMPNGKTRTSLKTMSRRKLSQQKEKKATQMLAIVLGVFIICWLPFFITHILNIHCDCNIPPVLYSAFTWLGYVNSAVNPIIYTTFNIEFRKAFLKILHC
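PathHunter D2 cells, attached overnight at 37 deg C, received compound in DMSO plus dopamine at EC20 (50 nM final) for 90 min at 37 deg C. Beta-arrestin recruitment was read as luminescence after 1 h with detection reagent at ambient temperature.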
TRPML1 agonist = activates the human TRPML1 channel | TRPML1-expressing cells, Ca2+ dye fluorescence, FDSS; host cell line not named in the record; reference of the full effect not given here | activation, % (concentration not given with the values) | 0.12% of 410,000 active | AID 624414; in the data active = activation above about 50%; inconclusive = about 30% to 50%; inactive = below about 30%; note: 0% is about no effect; the text of the record puts the active cut at 80%
Target sequence (Q9GZU1 whole entry, looked up): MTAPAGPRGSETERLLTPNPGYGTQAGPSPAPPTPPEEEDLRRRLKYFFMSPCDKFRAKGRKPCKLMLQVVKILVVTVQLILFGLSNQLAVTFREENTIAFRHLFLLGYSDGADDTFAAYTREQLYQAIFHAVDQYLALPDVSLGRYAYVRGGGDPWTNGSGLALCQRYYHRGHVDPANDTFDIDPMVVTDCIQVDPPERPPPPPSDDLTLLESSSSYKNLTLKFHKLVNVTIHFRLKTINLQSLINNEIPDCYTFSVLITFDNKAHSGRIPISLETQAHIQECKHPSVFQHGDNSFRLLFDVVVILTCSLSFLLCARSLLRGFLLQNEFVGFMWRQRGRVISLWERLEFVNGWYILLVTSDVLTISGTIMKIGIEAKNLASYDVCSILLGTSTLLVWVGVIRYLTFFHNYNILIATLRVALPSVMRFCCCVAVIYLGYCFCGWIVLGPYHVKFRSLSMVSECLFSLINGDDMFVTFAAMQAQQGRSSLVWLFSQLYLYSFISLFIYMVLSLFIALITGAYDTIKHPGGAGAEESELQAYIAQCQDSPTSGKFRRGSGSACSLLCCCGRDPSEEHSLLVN
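Agonist activity was taken from a 110 s kinetic Ca2+ dye read on the FDSS after pinning compounds onto TRPML1-DL cells. The cells were seeded at 1,500/well with Tet inducer, incubated about 16 h, then dye-loaded at room temperature.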
D2 ag = human D2 receptor agonism in beta-arrestin assay | DiscoveRx PathHunter D2 beta-arrestin, luminescence, 90 min; 100% = 57 uM dopamine signal | 0.084% of 360,000 active | activation, % (concentration not given with the values) | AID 624465; in the data active = activation above about 40%; inconclusive = about 15% to 40%; inactive = below about 15%; note: compound concentration not given in the record; the text of the record calls up to 30% inactive
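DiscoveRx PathHunter D2 beta-arrestin cells (2,100/well) attached overnight, then compound-stimulated 90 min at 37 C in HBSS/10 mM HEPES/0.1% Tween-20 buffer; beta-galactosidase complementation read by luminescence after 1 h at ambient temperature. Dopamine 57 uM final (EC100) as control.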
CtBP-E1A inh = CtBP/E1A binding inhibition; activity change, % (concentration not given with the values); AlphaScreen GST-E1A/His-CtBP binding, 1536-well; stronger effect = lower value; control for the full effect not named in the record; 0.49% of 340,000 active; in the data active means activity change below about -65%; inconclusive means about -30% to -65%; inactive means above about -30%; note: % is set by controls: 0 for no effect and ±100 for the full control effect
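AlphaScreen with 125 nM GST-E1A and 125 nM His-CtBP (5X stocks) in Tris pH 8.0, 300 mM NaCl, BSA, Tween 20, TCEP. Compounds preincubated 2 h at 37 deg C, then glutathione donor/nickel acceptor beads added for 1 h at 37 deg C in dark.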
The depositor's hits bear a star; ? = inconclusive; nt = not tested or not shown; & = joins results of further samples; ! = not active in a repeat; [ ] = remark or other dose. An excerpt; the hit share may differ from the screen's.

Under each structure: PINK1 expr mod, CtBP-E1A inh, TRPML1 agonist, D2 ag, Six1-Eya2 blk, D2 potentiator
> CNC(=O)O/N=C(\C)Cc1nnn(-c2cc(C)on2)n1
    -0.4%, -2, 0.5, -2.2, 11, -2
> CC(C)CCn1c(=O)c(C(=O)NCc2ccco2)c(O)c2ccccc21
    6.6%, 0, 1.1, -6.0, 3, -7
> Cc1cccc(C)c1OC(=O)Cc1ccccc1
    12%, 11, 1.0, -4.6, 22, -12
> CCN(CC)P(=O)(Oc1cccc(C)c1)N(CC)CC
    -0.6%, 4, -0.9, -2.2, -3, -1
> c1ccc(CCN2CCC(N3CCN(c4ccccc4)CC3)CC2)cc1
    -1.0%[38.3 µM], 3, 0.2, ?, 2, -4
> CC(C)(C)N1CC(C(=O)c2ccccc2)C1c1ccccc1 (stereo unspecified)
    6.4%, -7, 1.8, 0.2, -8, -13
> COc1cc(/C=C/C(=O)c2c(O)n(CCc3ccccc3)c(=O)[nH]c2=O)ccc1O
    -2.0%, -6, 5.6, -7.3, -17, -21
> CCCC1C(C#N)=C(N)Oc2c1c(=O)oc1ccccc21 (stereo unspecified)
    -1.5%, 4, 0.5, -0.6, 3, 21
> CC(C)c1ccccc1OCC(=O)N1CCCN(C)CC1
    -0.6%, 4, -0.6, 0.9, 2, -7
> O=C(NC(Cc1cnc[nH]1)C(=O)O)c1ccccc1 (stereo unspecified)
    -1.2%, -2, -0.3, -3.3, 3, -4

6 neighbouring compounds from above, quoted:
Under each structure: PINK1 expr mod, CtBP-E1A inh, TRPML1 agonist, D2 ag, Six1-Eya2 blk, D2 potentiator
> c1ccc(CCN2CCC(N3CCN(c4ccccc4)CC3)CC2)cc1
    -1.0%[38.3 µM], 3, 0.2, ?, 2, -4
> CC(C)(C)N1CC(C(=O)c2ccccc2)C1c1ccccc1 (stereo unspecified)
    6.4%, -7, 1.8, 0.2, -8, -13
> COc1cc(/C=C/C(=O)c2c(O)n(CCc3ccccc3)c(=O)[nH]c2=O)ccc1O
    -2.0%, -6, 5.6, -7.3, -17, -21
> CCCC1C(C#N)=C(N)Oc2c1c(=O)oc1ccccc21 (stereo unspecified)
    -1.5%, 4, 0.5, -0.6, 3, 21
> CC(C)c1ccccc1OCC(=O)N1CCCN(C)CC1
    -0.6%, 4, -0.6, 0.9, 2, -7
> O=C(NC(Cc1cnc[nH]1)C(=O)O)c1ccccc1 (stereo unspecified)
    -1.2%, -2, -0.3, -3.3, 3, -4

The main list resumes with the 2 entries that preceded the break.
Under each structure: PINK1 expr mod, CtBP-E1A inh, TRPML1 agonist, D2 ag, Six1-Eya2 blk, D2 potentiator
> CC(C)c1ccccc1OCC(=O)N1CCCN(C)CC1
    -0.6%, 4, -0.6, 0.9, 2, -7
> O=C(NC(Cc1cnc[nH]1)C(=O)O)c1ccccc1 (stereo unspecified)
    -1.2%, -2, -0.3, -3.3, 3, -4
> COc1ccccc1CN1CCNCC1
    0.8%, -2, -0.5, -2.4, 1, -21
> COc1cc(CC2(CCc3ccncc3)C(=O)N(C)C(=O)N(C)C2=O)cc(OC)c1OC
    -2.0%, 0, 0.9, 0.6, 19, -4
> COc1cc2c(c(OC)c1OC)-c1ccc(O)cc1[C@@H](NC(C)=O)CC2
    7.8%, 7, 0.1, -3.9, 7, -13
> CCCNC(=O)N1CCC2(CC1)OCCO2
    -2.6%, 0, 0.1, -1.8, -9, -3
> CCN(CC)c1ccc(N=Cc2c(O)n(Cc3ccccc3)c(=O)[nH]c2=O)cc1
    15%&21%, 48, 1.0&1.4, -2.9&-6.0, -72*!, 4&-7
> COC1=C[C@@H]2[C@@H]3Cc4ccc(OC)c(O)c4[C@]2(CCN3C)CC1=O
    0.9%, -7, 0.5, -1.1, 5, -8
> COc1ccccc1N1CCN(Cc2ccc(F)cc2)CC1
    3.2%, 2, -0.4, 5.8, -12, -11
> CN1CCC(O)(c2ccccc2)C2CCCC21 (stereo unspecified)
    0.9%[38.3 µM], 8, -0.4, -2.1, 1, -5
> Cc1nc2ccccc2c(=O)n1-c1cccc([N+](=O)[O-])c1
    0.8%, nt, nt, 6.5, 0, 23
> CN1CCC(N(C)c2ccc(C(N)=O)cc2[N+](=O)[O-])CC1
    1.3%, 0, -0.1, -1.1, -1, 7
> O=C(Nc1ccccc1)N1Cc2ccccc2-n2nncc2C1
    1.2%, -1, 1.1, -1.1, 3, -5
> N#Cc1ccc(NC(=S)N2Cc3ccccc3-n3nncc3C2)cc1
    0.1%, 0, -0.2, -9.2, -1, -1
> Cc1cc(OCC(=O)NCc2cccnc2)c2c3c(c(=O)oc2c1)CCCC3
    1.0%, -9, -0.1, 5.7, -5, 5
> NCC(O)c1cc(O)c(O)cc1F (stereo unspecified)
    0.8%, 6, -0.1, -4.0, 4, 0
> COc1ccc(OC(=O)Nc2ccccc2)cc1
    ?, 3, 0.8, 0.9, 3, -4
> COC(=O)C1=C(c2c(C)noc2C)C[C@@H]2CC[C@H]1N2C(=O)NCC1CC1
    0.3%, -23, -0.1, -0.2, 10, -1
> N#Cc1ccc(N2CCNCC2)c(F)c1
    -0.9%, 0, 0.1, 1.8, 4, -7
> CCCCC1(CCO)C(=O)NC(=S)NC1=O
    -0.8%, 7, -0.6, -3.1, 10, -8
> Cc1cc(=O)n(-c2ccccc2)n1-c1ccccc1
    0.2%, 4, 0.4, -6.1, 9, -2
> N#Cc1c(/N=C/C2C(=O)NC(=S)NC2=O)sc2c1CCCC2
    -0.1%, -2, 0.2, 14, -10, 2
> Cc1ccc(N(C)C(=O)Oc2cccc3cccnc23)cc1
    -0.2%, 7, 0.0, -0.8, 9, -30
> CCCCCn1c(=O)c(C(=O)Nc2ccccn2)c(O)c2ccccc21
    1.8%, nt, nt, 0.5, 1, 3
> O=C1NC(=O)N(c2ccccc2)C(=O)/C1=C\c1ccccc1[N+](=O)[O-]
    4.8%, -1, -0.4, -2.7, -1, 5
> C1CN(P2(N3CC3)=NP(N3CC3)(N3CC3)=NP(N3CC3)(N3CC3)=N2)CCO1 (stereo unspecified)
    -0.3%, 3, -0.2, -1.3, -1, 5
> COC(=O)C1=C(c2c(C)noc2C)C[C@@H]2CC[C@H]1N2C(=O)N1CCCC1
    1.2%, 0, -0.9, -1.1, 3, -2
> Cn1c(=O)cc(OCC(=O)N2CCN(Cc3ccc4c(c3)OCO4)CC2)c2ccccc21
    -0.4%, -3, -0.7, 1.6, -1, -6
> CC1CCN(C(=O)C(C)Cl)CC1 (stereo unspecified)
    0.1%, 16, -0.3, -0.8, 8, -40
> CCOC(=O)CC(NC(=O)C(Cc1ccc(N(CCCl)CCCl)cc1)NC(C)=O)C(=O)OCC (stereo unspecified)
    -1.3%, 6, -0.6, -0.9, 3, -6
> Cc1ccc(S(=O)(=O)N(c2cc(Cl)c(O)c(Cl)c2)P(=O)(OC(C)C)OC(C)C)cc1
    1.1%, 8, 2.9, 2.7, 5, -8
> Cc1ccsc1/C=C1\C(=O)NC(=S)N(C)C1=O
    -0.6%, nt, nt, -2.4, -5, -20

Random excerpt: two records from the list.
Under each structure: PINK1 expr mod, CtBP-E1A inh, TRPML1 agonist, D2 ag, Six1-Eya2 blk, D2 potentiator
> COC(=O)C1=C(c2c(C)noc2C)C[C@@H]2CC[C@H]1N2C(=O)N1CCCC1
    1.2%, 0, -0.9, -1.1, 3, -2
> C1CN(P2(N3CC3)=NP(N3CC3)(N3CC3)=NP(N3CC3)(N3CC3)=N2)CCO1 (stereo unspecified)
    -0.3%, 3, -0.2, -1.3, -1, 5

(more compounds)
Under each structure: PINK1 expr mod, CtBP-E1A inh, TRPML1 agonist, D2 ag, Six1-Eya2 blk, D2 potentiator
> O=P(Oc1ccccc1)(Oc1ccccc1)C(O)c1ccc(Cl)cc1 (stereo unspecified)
    4.6%, 3, -0.5, 0.7, -2, -8
> COc1ccc(CN2C(=O)CC(=O)NC2=S)cc1
    0.4%, 8, -0.1, -1.8, -1, 1
> S=C1CN=C(c2ccccc2Cl)c2cc(Cl)ccc2N1
    0.5%, 0, -0.6, 5.1, -9, -5
> c1ccc2c3c([nH]c2c1)C1(CCNCC1)NCC3
    -0.3%, -1, 0.2, -3.8, 3, -12
> Oc1ccc(CC2CC3CCN2CC3)cc1O (stereo unspecified)
    -1.1%, 3, -0.1, nt, -3, -10
> Cc1ccc2c(c1)CC1(CN2C)C(=O)NC(=O)N(CCc2ccccc2)C1=O (stereo unspecified)
    nt, -5, -0.2, 3.1, 5, -3
> CN1CCc2nc(SCc3ccccc3Br)c(C#N)cc2C1
    3.6%, nt, 0.4, 5.2, -5, -20
> CN1CCN(S(=O)(=O)c2cnc(Cl)c(Br)c2)CC1
    9.9%, -6, -0.2, 3.0, 3, 16
> C=CCNC(=S)N1Cc2ccccc2-n2nncc2C1
    -0.4%, 6, -0.1, -1.4, 14, 4
> CCCCCn1c(=O)c(C(=O)Nc2ccccc2C)c(O)c2ccccc21
    0.1%, -2, 0.3, 6.8, 5, -3
> COC(=O)C1=C(c2ccccc2OCc2ccccc2)C[C@@H]2CC[C@H]1N2C(=O)NCc1ccccc1
    0.4%, -9, 1.9, -0.5, -13, -19
> COc1cc(N2CCOCC2)ccc1C=C1C(=O)NC(=O)NC1=O
    -0.5%, -9, -0.3, -0.7, -1, -2
> Cc1ccc2c(c1)C1CN(C)CCC1N2C(=O)Nc1cccc(Cl)c1 (stereo unspecified)
    -1.2%[38.3 µM], 7, 3.0, -8.0, -3, -20
> CN1CCc2nc(SCC(=O)OC(C)(C)C)c(C#N)cc2C1
    -1.7%, -1, -0.5, -1.6, -3, -41
> CC1=C(C/C(C)=C/c2ccccc2)/C(=C/CO)[C@H](O)[C@](C)(O)C12CC2
    4.9%, 4, -0.1, 0.3, -4, -7
> COc1ccc(/C=C/C=C2C(=O)NC(=S)NC2=O)cc1
    -0.1%, -2, 1.6, 1.3, -8, -1
> Cc1ccc(S(=O)(=O)CC(C)(O)C(=O)Nc2cccc(C(F)(F)F)c2)cc1 (stereo unspecified)
    17%[38.3 µM], 3, 3.1, 0.4, 4, -6
> c1ccc(-c2[nH]c(-c3ccccc3)[n+](CC3CO3)c2-c2ccccc2)cc1 (stereo unspecified)
    -1.4%, -11, 3.6, -1.2, -13, -3
> O=C(Cc1ccccc1)N1CCN(C/C=C/c2ccccc2)CC1
    -0.2%, 7, 0.1, 0.5, 0, -26
> COc1cc(CN2CCN(C(=O)Cc3ccccc3)CC2)cc(OC)c1OC
    0.7%, 1, 0.1, -3.4, -3, -17

Ordered by molar mass (smallest number first): part of the list above.
Under each structure: PINK1 expr mod, CtBP-E1A inh, TRPML1 agonist, D2 ag, Six1-Eya2 blk, D2 potentiator
> O=C(Cc1ccccc1)N1CCN(C/C=C/c2ccccc2)CC1
    -0.2%, 7, 0.1, 0.5, 0, -26
> Cc1ccc2c(c1)C1CN(C)CCC1N2C(=O)Nc1cccc(Cl)c1 (stereo unspecified)
    -1.2%[38.3 µM], 7, 3.0, -8.0, -3, -20
> COC(=O)C1=C(c2ccccc2OCc2ccccc2)C[C@@H]2CC[C@H]1N2C(=O)NCc1ccccc1
    0.4%, -9, 1.9, -0.5, -13, -19
